Screening data: PubChem, Broad Institute
NOMO-1 viab: STK33 inhibitor candidate reducing NOMO-1 cell viability. NOMO-1 AML viability, CellTiter-Glo luminescence, 72 h. inhibition, % (no concentration beside the values). hit rate 7.5% among 37,000. AID 2330;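 active = most replicates above 80%; inconclusive = exactly half above 80%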;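 note: wells of about 30 µL received 25 nL stock; 0% = median of vehicle wells and 100% = reference inhibitor level; the first replicate is given; inactives centre near 10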
* hit, by the source's call; ? = inconclusive. A portion of the library; rates above refer to the full screens.

SMILES | NOMO-1 viab
CNC[C@@H]1Oc2ccc(NS(=O)(=O)c3ccccc3)cc2CC(=O)N([C@H](C)CO)C[C@@H]1C | -9.6
Cc1noc(C)c1NC(=O)Nc1ccc2c(c1)C(=O)N([C@H](C)CO)C[C@H](C)[C@H](CN(C)C(=O)Nc1ccccc1)OCCCC[C@@H](C)O2 | -19.2
NS(=O)(=O)c1cc(C2(O)NC(=O)c3ccccc32)ccc1Cl (configuration not stated) | -14.1
CC(=O)O[C@@H]1C[C@@H](C)[C@](O)(CCc2ccoc2)[C@]23CCC[C@](C)(C(=O)OC2)C13 (some centres not stated) | 5.1
Cc1nccn1CC(O)COc1ccccc1Br (configuration not stated) | -1.6
C[C@@H]1CN([C@@H](C)CO)C(=O)c2cc(N(C)C)ccc2O[C@@H]1CN(C)Cc1ccncc1 | -12.5
C[C@@H]1CCCCO[C@@H](CN(C)S(=O)(=O)c2ccc(F)cc2)[C@@H](C)CN([C@H](C)CO)C(=O)c2cc(NC(=O)c3ccccc3)ccc2O1 | 30.2
C[C@@H]1CN([C@H](C)CO)C(=O)c2cc(NC(=O)Nc3ccc4c(c3)OCO4)ccc2O[C@@H]1CN(C)S(=O)(=O)c1ccccc1 | 59.8
C[C@@H]1CN([C@H](C)CO)C(=O)c2cc(NC(=O)C3CC3)ccc2O[C@@H]1CN(C)Cc1ccc2c(c1)OCO2 | 15.3
COC(=O)c1ccccc1NC(=O)c1ccc(NC(=O)CSc2ccccc2)cc1 | 6.6
COc1ccc(NC(=O)Nc2ccc3c(c2)CC(=O)N([C@@H](C)CO)C[C@@H](C)[C@@H](CN(C)S(=O)(=O)c2ccc(Cl)cc2)O3)cc1 | 35.0
C[C@H](CO)N1C[C@H](C)[C@@H](CN(C)S(=O)(=O)c2ccccc2)Oc2c(NC(=O)C3CCCCC3)cccc2C1=O | 14.3
COC(=O)c1cc(O)c(C(=O)c2c(O)cccc2C(=O)O)c(O)c1 | 6.0
C[C@@H]1CN([C@@H](C)CO)C(=O)c2cc(NC(=O)CCCCCC(=O)Nc3ccccc3N)ccc2O[C@@H]1CN(C)S(=O)(=O)c1cccs1 | -0.3
C[C@@H]1CN([C@@H](C)CO)C(=O)Cc2cc(NC(=O)CCC(F)(F)F)ccc2O[C@@H]1CN(C)Cc1ccc2c(c1)OCO2 | 37.2
Cc1ccc(C(C)C)c(OC(=O)CS(=O)c2ccc(C(F)(F)F)cc2[N+](=O)[O-])c1 (configuration not stated) | 129.6*
C[C@@H]1CN([C@@H](C)CO)C(=O)c2cc(NC(=O)CCN3CCOCC3)ccc2O[C@H]1CN(C)Cc1ccc(-c2ccccc2)cc1 | -2.0
Cc1ccccc1OCC(=O)NC(=S)Nc1ccccc1N1CCN(S(C)(=O)=O)CC1 | 19.4
C[C@H]1CN([C@@H](C)CO)C(=O)c2cccc(NC(=O)c3cnccn3)c2O[C@@H]1CN(C)Cc1ccc(C(=O)O)cc1 | -10.5
COc1ccc(CN(C)C[C@H]2Oc3ccc(NS(=O)(=O)c4cn(C)cn4)cc3CC(=O)N([C@@H](C)CO)C[C@H]2C)cc1 | 23.9

Gathered by group, the compounds so far with two or more sulfur atoms
SMILES | NOMO-1 viab
C[C@@H]1CN([C@@H](C)CO)C(=O)c2cc(NC(=O)CCCCCC(=O)Nc3ccccc3N)ccc2O[C@@H]1CN(C)S(=O)(=O)c1cccs1 | -0.3
Cc1ccccc1OCC(=O)NC(=S)Nc1ccccc1N1CCN(S(C)(=O)=O)CC1 | 19.4

Next part
SMILES | NOMO-1 viab
Cc1cc(Cl)c(S(=O)(=O)N2CCCCCC2)cc1OCC(N)=O | -0.2
C[C@H]1CN([C@@H](C)CO)C(=O)c2cccc(NS(C)(=O)=O)c2O[C@@H]1CN(C)Cc1ccncc1 | -0.9
CNCCC=C1c2ccccc2C=Cc2ccccc21 | 40.9
CSc1nc2ccccc2c(=O)n1CCc1ccccc1 | 32.4
COc1ccc(NC(=O)Nc2ccc3c(c2)C(=O)N([C@H](C)CO)C[C@@H](C)[C@H](CN(C)S(=O)(=O)c2ccc(Cl)cc2)O3)cc1 | -0.1
COc1ccc(/C=C/C(=O)O[C@@H]2[C@@H](O)[C@H](C)O[C@@H](O[C@H]3[C@@H]4C=CO[C@@H](O[C@H]5O[C@@H](CO)[C@H](O)[C@@H](O)[C@@H]5O)[C@@H]4[C@@]4(CO)O[C@@H]34)[C@@H]2OC(C)=O)cc1 | 22.3
Cc1noc(C)c1NC(=O)N(C)C[C@H]1Oc2ccc(NC(=O)Nc3ccc(F)cc3)cc2C(=O)N([C@H](C)CO)C[C@H]1C | 13.9
CC(=O)n1c(-c2ccc(C)cc2)cc(-c2ccc(C)cc2)c(C#N)c1=O | 17.2
C=C[C@]1(C)CC[C@H]([C@H](C)C(=O)/C=C/C(C)(C)O)O1 | 37.3
COc1ccc(NC(=O)N(C)C[C@@H]2Oc3c(NC(=O)c4cnccn4)cccc3C(=O)N([C@H](C)CO)C[C@@H]2C)cc1 | 12.2
COc1ccc(S(=O)(=O)Nc2ccc3c(c2)C(=O)N([C@H](C)CO)C[C@H](C)[C@H](CN(C)S(=O)(=O)c2ccc(F)cc2)OCCCC[C@@H](C)O3)cc1 | 61.1
Cc1cc(N(CC(=O)Nc2cccc([N+](=O)[O-])c2)S(C)(=O)=O)ccc1Br | 13.6
C[C@@H]1CN([C@H](C)CO)C(=O)Cc2cc(NS(C)(=O)=O)ccc2O[C@H]1CN(C)S(C)(=O)=O | 3.5
COc1ccc(NC(=O)CN(c2ccc(C)c(C)c2)S(C)(=O)=O)c(OC)c1 | 16.2
CCOc1ccc(-n2c(SCc3nc4ccccc4[nH]3)nc3sc4c(c3c2=O)CCCC4)cc1 | 11.4
C[C@H]1CN([C@@H](C)CO)C(=O)c2cc(NC(=O)Cc3ccccc3)ccc2O[C@H]1CN(C)S(C)(=O)=O | 2.7
C[C@H]1CN([C@@H](C)CO)C(=O)c2cc(NC(=O)Cn3cnnn3)ccc2O[C@@H]1CN(C)S(=O)(=O)c1ccc(F)cc1 | 1.7
COc1ccc(NC(=O)CNC(=O)c2cccc(C)c2)cc1 | -13.8
C[C@H]1CN([C@@H](C)CO)C(=O)c2cccc(NC(=O)c3ccncc3)c2O[C@H]1CN(C)S(=O)(=O)c1cccs1 | -19.9
C[C@H](CO)N1C[C@H](C)[C@H](CN(C)Cc2ccc(Cl)c(Cl)c2)Oc2ccc(NC(=O)C3CC3)cc2CC1=O | 20.8

7 neighbouring compounds out of the list so far:
SMILES | NOMO-1 viab
COc1ccc(NC(=O)CN(c2ccc(C)c(C)c2)S(C)(=O)=O)c(OC)c1 | 16.2
CCOc1ccc(-n2c(SCc3nc4ccccc4[nH]3)nc3sc4c(c3c2=O)CCCC4)cc1 | 11.4
C[C@H]1CN([C@@H](C)CO)C(=O)c2cc(NC(=O)Cc3ccccc3)ccc2O[C@H]1CN(C)S(C)(=O)=O | 2.7
C[C@H]1CN([C@@H](C)CO)C(=O)c2cc(NC(=O)Cn3cnnn3)ccc2O[C@@H]1CN(C)S(=O)(=O)c1ccc(F)cc1 | 1.7
COc1ccc(NC(=O)CNC(=O)c2cccc(C)c2)cc1 | -13.8
C[C@H]1CN([C@@H](C)CO)C(=O)c2cccc(NC(=O)c3ccncc3)c2O[C@H]1CN(C)S(=O)(=O)c1cccs1 | -19.9
C[C@H](CO)N1C[C@H](C)[C@H](CN(C)Cc2ccc(Cl)c(Cl)c2)Oc2ccc(NC(=O)C3CC3)cc2CC1=O | 20.8

Later entries:
SMILES | NOMO-1 viab
COc1ccc(-c2cc(=O)[nH]c(SCC(=O)Nc3cccc(Cl)c3C)n2)cc1 | -8.7
C[C@H]1CN([C@@H](C)CO)C(=O)c2cc(NS(=O)(=O)c3ccc(Cl)cc3)ccc2O[C@@H]1CN(C)Cc1ccc(C(=O)Nc2ccccc2N)cc1 | 54.6
COc1ccc(NC(=O)N(C)C[C@H]2Oc3ccc(NS(=O)(=O)c4ccccc4)cc3C(=O)N([C@@H](C)CO)C[C@@H]2C)cc1 | 21.4
CNC[C@@H]1Oc2c(NC(=O)c3ccncc3)cccc2C(=O)N([C@H](C)CO)C[C@H]1C | 0.1
O=C1CC(CSc2ccc(Cl)cc2)=NN1c1nc2ccccc2s1 | 26.8
COc1ccc(NC(=O)N(C)C[C@@H]2OCCCC[C@@H](C)Oc3ccc(NC(=O)CCCN(C)C)cc3C(=O)N([C@H](C)CO)C[C@@H]2C)cc1 | 1.2
C[C@H](CO)N1C[C@H](C)[C@H](CN(C)Cc2ccc(-c3ccccc3)cc2)Oc2ccc(NC(=O)CCCN(C)C)cc2CC1=O | 35.4
C[C@H]1CN([C@@H](C)CO)C(=O)c2cccc(NC(=O)c3nc4ccccc4s3)c2O[C@@H]1CN(C)S(=O)(=O)c1ccc(Cl)cc1 | 71.3
Cc1cc(NC(=O)c2cc3nc(-c4cccs4)cc(C(F)(F)Cl)n3n2)n(-c2ccccc2)n1 | ?
C[C@H]1CN([C@@H](C)CO)C(=O)Cc2cc(NC(=O)NC3CCCCC3)ccc2O[C@H]1CN(C)C(=O)Nc1ccc(F)cc1 | -6.6
O=C(Oc1c(-c2ccccc2)c(=O)n2c3c(cccc13)CC2)c1ccccc1 | 21.3
Clc1ccc(-c2nnc(SCc3nc4ccccc4[nH]3)o2)c(Cl)c1 | 27.8
Cc1ccc(S(=O)(=O)NCC(=O)Nc2ccc(Cl)c(C(F)(F)F)c2)cc1 | 59.8
COc1ccc(NC(=O)Nc2cccc3c2O[C@H](CN(C)S(C)(=O)=O)[C@H](C)CN([C@H](C)CO)C3=O)cc1 | 10.5
Cc1noc(C)c1NC(=O)Nc1ccc2c(c1)CC(=O)N([C@H](C)CO)C[C@@H](C)[C@H](CN(C)S(=O)(=O)c1ccccc1)O2 | -3.9
COc1ccc(CN(C)C[C@@H]2Oc3ccc(NS(=O)(=O)c4ccc(C)cc4)cc3C(=O)N([C@@H](C)CO)C[C@@H]2C)cc1 | 26.5
NC(=S)Cc1ccc(Cl)cc1Cl | -22.9
COC(=O)C(C)c1ccc(C(=O)c2cccs2)cc1 (configuration not stated) | -5.9
C[C@@H]1CN([C@H](C)CO)C(=O)Cc2cc(N(C)C)ccc2O[C@@H]1CN(C)S(=O)(=O)c1cn(C)cn1 | -18.1
O=C(CSc1nnc(-c2ccncc2)n1-c1ccccc1)NC1CCCCC1 | -18.7
COc1ccc(S(=O)(=O)Nc2cccc3c2O[C@H](CN(C)C(=O)Nc2ccccc2)[C@@H](C)CN([C@H](C)CO)C3=O)cc1 | -1.6
O=C(Nc1ccccc1C(=O)OCc1ccc([N+](=O)[O-])cc1)c1ccco1 | 21.9
COc1ccc(NC(=O)Nc2ccc3c(c2)CC(=O)N([C@H](C)CO)C[C@H](C)[C@H](CN(C)Cc2ccc(-c4ccccc4)cc2)O3)cc1 | 59.5
CC(C)NC(=O)Nc1ccc2c(c1)C(=O)N([C@H](C)CO)C[C@H](C)[C@H](CN(C)C(=O)Nc1ccc(C(F)(F)F)cc1)O2 | 7.3
N#Cc1sc2sc(C#N)c(-c3ccco3)c2c1N | 47.2
COc1ccc(-c2nc3cc(C(C)C)ccc3o2)cc1NC(=O)COc1ccc(C)cc1 | 19.1
Cc1cccc(C)c1N(CC(=O)NC1CCCCC1)S(C)(=O)=O | 9.1
COc1ccc(OC)c(NC(=O)CSc2ncccn2)c1 | -2.8
C[C@@H]1CN([C@@H](C)CO)C(=O)c2cccc(NC(=O)NC3CCCCC3)c2O[C@@H]1CN(C)Cc1ccc(Cl)c(Cl)c1 | 100.5*
Cc1noc(C)c1NC(=O)N(C)C[C@H]1Oc2c(NC(=O)NC(C)C)cccc2C(=O)N([C@H](C)CO)C[C@H]1C | -17.1
C[C@@H]1CN([C@@H](C)CO)C(=O)Cc2cc(NC(=O)CCN3CCOCC3)ccc2O[C@@H]1CN(C)S(=O)(=O)c1cn(C)cn1 | -3.5
CC(=O)Nc1cccc(NC(=S)NCc2ccco2)c1 | -10.6
CN(CCO)C(=O)c1ccc2c(c1)C(=O)c1ccccc1-2 | 1.1
C[C@H]1CN([C@@H](C)CO)C(=O)c2cccc(NC(=O)Nc3ccc(F)cc3)c2O[C@@H]1CN(C)Cc1ccc(-c2ccccc2)cc1 | 59.4
C[C@H](CO)N1C[C@H](C)[C@@H](CN(C)Cc2ccc(C(=O)O)cc2)Oc2ccc(NC(=O)CCC(F)(F)F)cc2C1=O | 6.3
COc1cc(C2NC(=O)NC(c3ccccc3)=C2C(=O)c2ccccc2)cc(Cl)c1OCC(N)=O (configuration not stated) | 4.5
C=C(C)C1CCC2(C(=O)O)CCC3(C)C(CCC4C5(C)C(C=O)C(O)C(C)(CO)C5CCC43C)C12 (configuration not stated) | 16.8
Cc1noc(C)c1NC(=O)Nc1cccc2c1O[C@H](CN(C)Cc1ccc(C(F)(F)F)cc1)[C@@H](C)CN([C@H](C)CO)C2=O | 18.4
C[C@H]1CN([C@@H](C)CO)C(=O)c2cc(NC(=O)Nc3ccc(F)cc3)ccc2O[C@@H]1CN(C)C(=O)Nc1ccc(C(F)(F)F)cc1 | 29.0
CC(C)NC(=O)N(C)C[C@@H]1Oc2ccc(N(C)C)cc2C(=O)N([C@@H](C)CO)C[C@@H]1C | -1.6
C[C@H]1CN([C@@H](C)CO)C(=O)c2cccc(NC(=O)Nc3ccc4c(c3)OCO4)c2O[C@@H]1CN(C)S(C)(=O)=O | 0.2
c1ccc(-n2nnnc2CSc2ncn[nH]2)cc1 | -3.7
Cc1ccc(-c2csc3ncnc(SCC(=O)Nc4ccccc4F)c23)cc1 | 9.3
C[C@@H]1CN([C@H](C)CO)C(=O)c2cc(NS(=O)(=O)c3ccccc3)ccc2O[C@H]1CN(C)S(C)(=O)=O | -16.7
Nc1nc(CSc2ccccn2)nc(Nc2ccccc2)n1 | 18.8
C[C@@H]1CN([C@@H](C)CO)C(=O)c2cc(NS(=O)(=O)c3cccs3)ccc2O[C@@H]1CN(C)Cc1ccc(-c2ccccc2)cc1 | 90.9*
COc1ccc(CN(C)C[C@@H]2Oc3ccc(NC(=O)Nc4ccc(OC)cc4)cc3CC(=O)N([C@@H](C)CO)C[C@@H]2C)cc1 | 2.1
Cc1c(NC2CS(=O)(=O)CC2O)c(=O)n(-c2ccccc2)n1C (configuration not stated) | -3.6
